# Vif TR-FRET – inhibitors of Vif binding to APOBEC3G peptide, primary screen, biochemical, TR-FRET, GST-Vif 1-94, biotin-A3G peptide, dose response retest (AID 1117319); 260,000 tested, 0.57% active; TR-FRET GST-Vif / biotin-A3G peptide binding; higher % means a stronger effect; test concentration not given here; strong numbers were not always called active; inhibition, %, or IC50 in µM where a hit was titrated;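 active means above the screen mean plus three standard deviations and confirmed in dose response; inconclusive means results disagree or hit not tested in dose response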;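 further: Vif residues 1-94 fused to GST binding biotinylated APOBEC3G peptide 110-148; 0% = full assay without inhibitor and 100% = GST in place of GST-Vif; retest series ran down from 100 µM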
# Bfl-1 A1 inh – caspase 3/7 activation in MEF A1-2A-BIM cells, primary screen, A1 inhibitor project, cell-based, luminescence, HTS; Caspase-Glo 3/7 luminescence, 3 h; percent of clofoctol response, vehicle zero; caspase activation, % (test concentration not listed); 330,000 tested, 0.066% active; AID 2462, 2010;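 active means over half of replicate activation scores above 10%, or exactly half above 10 with the replicate mean above 10; inconclusive means replicate mean below 10 yet half the replicates above 10; inactive means over half of replicates below 10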;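 further: wells of about 30 µL received 50 nL stock; many hits fall short of the cut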
# rRNA inh HTS – reduced GFP signal of wild-type E. coli, primary screen, bacterial rRNA inhibitor project, GFP/RFP fluorescence, OD600, single point | E. coli WT GFP vs humanized-ribosome RFP mutants, 24 h; active compounds read low; DMSO median 0, no signal -100 | GFP signal change (wild-type ribosome), % (no concentration beside the values) | 350,000 tested, 1.6% active;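 active means significant combined selectivity score with lowered wild-type GFP, culture density cut under 30%, mutant RFP and density less affected; inactive means any of these conditions unmet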; further: one replicate is shown; some compounds called inactive have numbers as strong as hits
# Calb FLC – C. albicans growth inhibition with fluconazole, primary screen, CaCi-2 strain, Alamar Blue fluorescence; growth inhibition, % (concentration not given with the values); 300,000 tested, 0.57% active; AID 1979, 2009; C. albicans CaCi-2 (fluconazole-resistant clinical isolate) + fluconazole, 48 h;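 active means most replicates above 75%; inconclusive means exactly half above 75%; inactive means most below 75%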;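 further: all wells also contain fluconazole at 8 µg/ml as a sub-toxic cotreatment; 0% = median of DMSO wells and 100% = median of geldanamycin control wells; wells of about 8 µL received 7.5 nL stock; the first replicate is given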
# RanGTP-Imp inh – inhibitors of RanGTP-importin-beta interaction, primary screen, biochemical, FRET, CFP-Ran, YFP-importin-beta, homogeneous; cell-free CFP-Ran/YFP-importin-beta FRET ratio; Ran GTPase (GTP-bound) - importin-beta complex; 300,000 tested, 1.1% active; AID 2216, 2009; inhibition, % (test concentration not listed);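 active means most replicates above 15%; inconclusive means exactly half above 15%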;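 further: 0% = DMSO wells and 100% = Ran loaded with GDP instead of GTP; wells of about 40 µL received 100 nL stock; the first replicate is given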
# MLL AF4-AF9 inh – inhibitors of AF4 peptide binding to AF9, primary screen, biochemical, AlphaScreen, biotin-AF4 peptide, FLAG-AF9, single point; AID 651704, 2012; inhibition, % at 10 µM; 350,000 tested, 0.47% active;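 active means every replicate reaching a set inhibition limit, whatever the replicate mean, cut at about 25% in these data; inconclusive means mean inhibition reaches that limit but some replicates miss it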;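 further: 0% = plate neutral control median and 100% = total signal loss; the record names both 10 and 1 µM as test concentration; the first replicate is given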
# Target sequence (P42568 whole entry, looked up): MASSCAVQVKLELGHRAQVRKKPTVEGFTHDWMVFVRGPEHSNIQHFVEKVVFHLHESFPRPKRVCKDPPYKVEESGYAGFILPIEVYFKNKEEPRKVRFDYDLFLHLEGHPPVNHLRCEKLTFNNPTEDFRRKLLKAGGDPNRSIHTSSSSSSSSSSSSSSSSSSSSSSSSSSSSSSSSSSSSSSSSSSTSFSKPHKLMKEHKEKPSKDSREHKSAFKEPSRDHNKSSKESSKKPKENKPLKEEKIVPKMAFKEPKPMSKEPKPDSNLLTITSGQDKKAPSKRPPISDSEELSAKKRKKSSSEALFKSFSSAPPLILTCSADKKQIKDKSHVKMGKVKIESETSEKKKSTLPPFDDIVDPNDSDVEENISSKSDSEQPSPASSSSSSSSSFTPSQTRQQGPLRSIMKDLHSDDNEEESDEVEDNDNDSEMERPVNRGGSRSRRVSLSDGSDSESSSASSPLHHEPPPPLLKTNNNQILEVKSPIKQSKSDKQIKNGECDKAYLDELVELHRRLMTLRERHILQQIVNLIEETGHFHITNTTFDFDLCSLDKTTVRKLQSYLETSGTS
# Beta apoptosis – inhibitors of cytokine-induced beta cell apoptosis, primary screen, luminescence; 300,000 tested, 0.8% active; protection from apoptosis, % (concentration not given with the values); INS-1E cytokine-induced death, ATP luminescence, 48 h; percent of positive-control rescue, neutral wells zero; AID 435005, 2010;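 active means all replicates at 75% or more, or half of them and the mean; inconclusive means half reach 75% but not the mean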;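 further: 0% = cytokine-treated negative control wells and 100% = positive control rescue; higher means more ATP so stronger rescue from cytokine killing; wells of about 40 µL received 100 nL stock; the first replicate is given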
# T cruzi repl – inhibitors of intracellular T. cruzi growth, primary screen, luminescence, NIH3T3 host cells; T. cruzi beta-gal in NIH3T3, 90 h; inhibition, % (test concentration not listed); 300,000 tested, 1.4% active;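 active means mean inhibition across valid replicates above about 55%, limit read from the data; inconclusive means mean below that limit but half or more replicates reach it; inactive means mean below it, under half of replicates reach it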;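 further: signal also drops with host cell toxicity which is not excluded here; 0% = plate median of DMSO wells and 100% = zero luminescence signal; higher percent means less beta-gal luminescence so fewer parasites; stock transfer was 50 nL into about 50 µL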
# rRNA inh HTS OD600 – second read-out of rRNA inh HTS, no call of its own (marks repeat the call); OD600 change, %; measured here: OD600 growth;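 optical density of the mix in the first replicate; 0 = DMSO median and -100 = no signal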
# rRNA inh HTS RFP – second read-out of rRNA inh HTS, no call of its own (marks repeat the call); RFP signal change, %; measured here: RFP humanized mutant strains;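 first replicate; 0 = DMSO median and -100 = no signal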
# Numbers without * were called inactive; ? = inconclusive; . = no result given. These rows are one share of the data; rates above refer to the full screens.
SMILES,Vif TR-FRET,Bfl-1 A1 inh,rRNA inh HTS,rRNA inh HTS OD600,rRNA inh HTS RFP,Calb FLC,RanGTP-Imp inh,MLL AF4-AF9 inh,Beta apoptosis,T cruzi repl
CCc1cccc(NC(=O)Cn2c3[n+](c4ccc(C(F)(F)F)cc42)CCCCC3)c1,.,0.2,-45*,-30*,-16*,-7,0.4,6.7,-2,13
Cc1[nH]c2ccc(C(=O)NCCN3CCOCC3)cc2c1C,0%,0.2,14,17,5.4,-3,5.4,-2.9,3,-7
COc1ccc(CC(NC(C)=O)C(=O)NC2CCN(C(=O)c3ccncc3)CC2)cc1OC (stereo not given),1%,0.0,3,3,1.3,4,0.1,-1.5,-4,-3
O=C(CSc1nnc(-c2c[nH]c3ccccc23)o1)NCC1CCCO1 (stereo not given),-15%,0.3,-3,-8,-1.0,.,.,?,-16,.
S=C(Nc1ccc2nccnc2c1)N1CCCC1,13%,0.4,17,9,-1.8,-3,-10,-1.8,0,-4
O=C(NCc1ccccn1)Nc1ccc(F)cc1F,0%,0.1,17,9,-2.6,-11,3.3,-7.7,-8,-3
Cc1cc(O)c(C(C)C)cc1NC(=O)Cn1nc(C)c2ccccc2c1=O,9%,1.2,.,.,.,-7,-0.4,.,3,26
CN(C)c1ccc(C(=S)N2CCCCCC2)cc1,6%,-0.7,.,.,.,-26,-0.3,.,4,0
CC(C)=C1SC(N2CCN(c3ccc(Cl)cc3)CC2)=NC1=O,-8%,-0.4,5,4,1.8,?,-0.3,-1.6,-7,-7
Cc1ccc(C(C)(C)C)cc1S(=O)(=O)N1CCC(C(=O)N2CCN(c3ccc(O)cc3)CC2)CC1,-13%,-0.4,-12,-4,-4.0,.,.,5.7,16,.
N#Cc1cccc(S(=O)(=O)NCC(=O)OCC(=O)c2ccc[nH]2)c1,1%,0.1,14,9,3.2,12,-0.3,-1.4,-1,-7
O=C(NCc1cccc(Cl)c1)C1CCC(=O)N(CCCN2CCOCC2)C1 (stereo not given),.,.,7,9,1.4,4,-5.8,3.6,.,-10
Cc1ccc(S(=O)(=O)N2CCC(C(=O)OC(C)C(=O)N3CCOCC3)CC2)cc1 (stereo not given),-9%,0.4,8,11,-2.9,-7,-0.1,-3.8,3,-2
Cc1cc(C)n(CCNCc2c(C(=O)N3C[C@@H](C)O[C@@H](C)C3)nc3ccc(Cl)cn23)n1,-9%,-0.1,3,5,-2.8,-6,0.2,-9.7,0,-4
CCOc1ccccc1NC(=O)NC1CCCc2ccccc21 (stereo not given),-3%,1.3,3,0,0.8,-5,0.3,0.0,1,-7
COc1ccc(-c2nc3ccccc3c(=O)n2CCc2ccc(O)cc2)cc1,.,-0.2,-19,-34,-0.3,11,2.7,-1.7,2,4
CCOC(=O)N/N=C(\C)c1ccc(OC(F)F)cc1OC(F)F,.,0.9,13,15,3.5,12,0.1,0.4,3,-7
O=S(=O)(c1ccccc1)N1CCN(Cc2cccc(Br)c2)CC1,.,0.2,-8,-9,1.0,2,?,0.0,0,-14
Cc1ccc(-n2c(C)cc(C=C3C(=O)CC(C)(C)CC3=O)c2C)cc1,-6%,-0.2,14,7,3.5,22,2.1,-0.8,-4,-8
COc1ccc(N=CC2=C(O)CC(c3ccccc3)CC2=O)c(OC)c1 (stereo not given),-5%,0.0,.,.,.,1,4.1,.,7,-3
O=C(N/N=C1\CCCCc2ccccc21)c1ccccn1,.,-0.4,3,-2,-1.6,20,1.2,-2.5,-2,6
O=C(Nc1ccc(N2CCN(C(=O)c3ccco3)CC2)cc1)c1ccccc1,6%,-0.7,0,2,3.1,-9,-1.5,-20,-2,9
CC(=O)Nc1cccc(NC(=O)C2C3C=CC(C3)C2C(=O)O)c1 (stereo not given),-2%,0.6,9,16,2.0,19,3.8,3.4,8,6
CCc1nnc(NC(=O)c2cccc(S(=O)(=O)N3CCCC3)c2)s1,.,-0.8,4,9,0.2,-2,-0.3,-4.5,.,9
CC1CCN(Cc2nnnn2-c2ccc(Cl)cc2)CC1,-10%,0.5,.,.,.,4,-3.8,.,-3,9
O=C(c1ccc(Br)o1)N1CCN(c2ccc(F)cc2)CC1,4%,0.3,.,.,.,-21,-1.8,.,-4,1
COc1ccc(NC(=O)Nc2ccccc2F)c([N+](=O)[O-])c1,-2%,-3.4,5,4,1.3,31,-2.9,-2.9,1,1
CC(C)N(C(=O)Cn1cc(SCC(=O)NCc2ccco2)c2ccccc21)C(C)C,-6%,0.7,-4,-5,-1.6,3,8.4,0.5,-12,4
O=S1(=O)C[C@@H](O)[C@@H](Nc2ccccc2)C1,19%,-0.2,3,9,-2.1,-4,27,-2.8,-2,-18
Cc1oc(C(C)(C)C)cc1C(=O)N1CCCC1C(=O)O (stereo not given),10%,-0.2,.,.,.,-3,-0.3,.,-1,2
CC1(C)Cc2ccccc2C(=NC(Cc2ccccc2)C(=O)O)N1 (stereo not given),.,-0.6,6,7,-0.8,-2,6.0,-3.2,.,-5
CC(OC(=O)c1ccccc1NS(=O)(=O)c1cccc(N)c1)C(=O)N(C)Cc1ccccc1 (stereo not given),.,0.7,-6,-12,-5.6,4,3.7,1.7,3,-9
CNC(=O)CSc1nnc(-c2cccc(S(=O)(=O)N3CCOCC3)c2)n1-c1ccc(F)cc1,-32%,-0.8,.,.,.,7,?,.,-1,-2
COc1ccc(S(=O)(=O)Nc2cccc(-n3cnnn3)c2)cc1,.,0.0,1,-8,0.6,20,-3.9,-0.4,-3,-16
COCCCn1c(C(=O)NCCC2=CCCCC2)cc2c(=O)n3ccccc3nc21,.,-0.1,2,5,-1.7,4,1.6,-4.2,0,-7
COc1ccccc1N(CC(=O)NC(C)(C)C)C(=O)c1ccc(Cl)nc1,13%,0.3,12,9,-11,-3,0.8,-1.1,-5,0
Cc1cc(NC(=O)c2cnn3c(C(F)(F)F)cc(-c4ccccc4)nc23)no1,-4%,0.2,1,2,-9.1,22,-2.3,3.3,27,38
O=C(O)C1CCCCC1C(=O)NCCc1ccc(F)cc1 (stereo not given),.,0.5,4,5,0.7,12,2.6,-3.7,0,-12
O=C(c1ccc2nccnc2c1)N1CCN(Cc2ccc3c(c2)OCO3)CC1,-1%,0.7,-1,1,-2.0,-9,2.9,-44,.,1
O=[N+]([O-])c1nn(-c2ccccc2)n(O)c1=NCc1ccc2c(c1)OCO2,-3%,-0.1,.,.,.,8,?,.,.,42
COc1cccc(NC(=O)COc2ccc3c(c2)CCC3)c1,8%,0.6,-20,-19,-1.0,100*,1.3,-2.7,0,22
CC(=O)Nc1ccc(NC(=O)C(C)OC(=O)CCCOc2ccc(Cl)c(C)c2)cc1 (stereo not given),.,-1.2,-7,-3,-2.2,-11,0.4,-1.5,2,-2
O=C(/C=C/c1ccc2c(c1)OCO2)N1CCOCC1,4%,-2.0,.,.,.,-4,-3.0,.,1,-5
Cc1cnc(=O)[nH]c1SCC(=O)Nc1nccs1,4%,0.4,10,8,0.2,-6,-2.7,5.3,-4,2
c1csc(CNc2ncnc3nc[nH]c23)c1,-7%,0.3,1,8,-3.7,-4,2.1,1.2,-3,1
C=CCn1cc(/C=C2/NC(=O)NC2=O)c2ccccc21,.,0.1,7,5,4.9,7,-1.6,0.8,1,-13
COC(=O)c1cc2oc3ccccc3c2n1CC(=O)Nc1ccccc1OC,-7%,0.4,.,.,.,-6,-3.2,.,3,10
CCOC(=O)C1=NN(C(C)=O)C2(CC(=O)N(c3cc(C)cc(C)c3)C2=O)C1 (stereo not given),-2%,-0.7,.,.,.,-3,?,.,-7,-17
CC(C)COP(=O)(OCC(C)C)C(O)c1ccccc1F (stereo not given),4%,1.5,.,.,.,1,-2.0,.,-3,-9
Cc1ccc(NS(=O)(=O)c2cc(C(=O)NCCSc3ccc(C)cc3)ccc2C)cc1,1%,-0.6,.,.,.,10,-1.6,.,6,27

# Continued:
SMILES,Vif TR-FRET,Bfl-1 A1 inh,rRNA inh HTS,rRNA inh HTS OD600,rRNA inh HTS RFP,Calb FLC,RanGTP-Imp inh,MLL AF4-AF9 inh,Beta apoptosis,T cruzi repl
O=C(Nc1nc(=O)c2ccccc2s1)c1ccccc1,-2%,-0.7,.,.,.,87*,3.1,.,-3,21
CCN(CCO)c1ccc(N=Nc2cc(C)[nH]n2)cc1,?,-4.0,-21*,-7.9*,2.1*,-6,-12,1.7,-6,3
Cc1ccc(SCC(=O)Nc2ccc(N3CCN(c4ccccc4)CC3)c(F)c2)cc1,-3%,0.6,.,.,.,4,-2.2,.,.,-8
O=C(O)/C=C/C(=O)Nc1ccc(OCc2ccccc2)cc1,?,-0.8,-5,11,0.3,-6,3.3,1.8,1,-3
CC(=O)N1CN(C2CCS(=O)(=O)C2)Cc2c1sc1c2CCCC1 (stereo not given),-3%,-0.4,.,.,.,0,3.3,.,-4,-11
CCC(=O)c1ccc(OCC(=O)OCC(=O)N2c3ccccc3CC2C)cc1 (stereo not given),2%,1.0,0,5,3.2,-3,0.4,8.2,-5,-13
N#Cc1nc(/C=C/c2ccccc2)oc1NCCCN1CCOCC1,-10%,1.0,.,.,.,0,3.9,1.9,-2,4
CC[C@@]1(C(=O)OC)N[C@H](CN(C)C(=O)Nc2ccc(F)cc2)[C@@H]2C(=O)N(C)C(=O)[C@@H]21,-2%,0.9,4,4,1.9,.,.,-1.6,-8,.
CC(C)CC(=O)Nc1nc(=S)ss1,2%,-0.6,.,.,.,1,1.3,.,-4,-27
Cn1c(SCc2c(Cl)cccc2Cl)nnc1-c1cccs1,-2%,-1.5,.,.,.,-12,.,.,5,12
CNS(=O)(=O)c1ccc(Oc2ccc(S(=O)(=O)NC)cc2)cc1,-3%,0.0,.,.,.,5,.,.,8,.
O=C(O)CCCCCCC1C(=O)NC(=O)N1CCC(O)C1CCCCC1 (stereo not given),27%,0.0,.,.,.,.,-8.2,-0.2,-2,-10
CC(C)(C)NC(=O)Cn1nnc(-c2cccs2)n1,7%,-0.2,.,.,.,-8,-3.1,.,.,8
N/C(=N\OC(=O)c1cccc(C(F)(F)F)c1)c1cnccn1,.,0.3,2,2,3.1,8,0.9,2.5,-3,-1
CCOc1ccc(Cc2c(C)[nH]c3ccc(C(=O)O)cc3c2=S)cc1,2%,0.0,2,-7,2.5,10,-0.4,-3.2,-3,-10
CCn1c(SCC(=O)Nc2cc(OC)ccc2OC)nc2c(c1=O)SCC2,3%,0.5,-2,-8,0.3,10,0.6,3.5,0,-3
CC(C)(C)NC(=S)N/N=C/c1c(Cl)cccc1Cl,.,-0.7,5,-7,-1.0,-4,0.6,3.0,1,36

# Screening results (PubChem)
